HTT promoter inh: inhibits huntingtin promoter activity; HEK293 HTT promoter firefly luciferase reporter (activity 0% = vehicle and -100% = no light), 24 h; Potency, µM (top dose mostly 57.5 µM), for the others: top-dose activity change, negative = inhibition, hits mostly inhibitors; 0.93% of 48,000 active; active = well fitted inhibition curve with a large enough effect; inconclusive = small, poorly fitted or top-dose-only effect; inactive = no such curve, though single readings can be large or run the other way; note: nearly all actives have a fitted effect of over 50% in size
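HEK293 cells carrying firefly luciferase reporters were seeded at 2,500 per well in Opti-MEM and cultured for 24 h. They were then treated with compounds at up to 57.5 uM final for 24 h at 37 degrees C before Dual-Glo luminescence readout.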
PMP22 txn prim: PMP22 gene transcription modulation | S16 Pmp22-F2sN Schwann cells (luciferase reporters placed in the Pmp22 gene), FLuc/NLuc coincidence luminescence, 24 h | 2% of 43,000 active | AID 1508649 | Potency, µM (top dose mostly 57.5 µM), inactives show top-dose activity change, negative = inhibition, most hits filed as inhibitors; active = clear falling dose curves in both reporters; inconclusive = both reporters move, but less clearly or upward; inactive = either reporter flat; the % is the NLuc reporter signal; note: % is set by controls: 0 for no effect and ±100 for the full control effect; some results filed as inactive show a strong effect at the top dose
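Schwann cells carrying the coincidence reporter were exposed to library compounds for 24 h at 37C, then lysed and read for FLuc and, after quenching, NLuc luminescence on a CCD imager.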
* marks the source's active call; other numbers are inactive results; u = inconclusive; x = not tested or not shown; & = joins results of further samples; [ ] = dose if it differs, or a comment. Potency is the fitted concentration of half-maximal effect.

Under each structure: HTT promoter inh, PMP22 txn prim
COC(=O)C(CCSC)NC(=O)c1cc2c(n(-c3ccc(Cl)cc3)c1=O)CCCC2=O (centres undefined)
 : -1.6%, 2.8%
COc1cccc(-c2nc(S(=O)(=O)c3ccccc3)c(N3CCCCC3)o2)c1
 : 1.8%, u
CCC1=C(c2ccc(C)cc2)S(=O)(=O)N=C1N1CCC(C(=O)NCCc2ccc(Cl)cc2)CC1
 : 20µM*, u
CCC(=O)N1CCc2cc(S(=O)(=O)CCC(=O)NCc3ccccc3OC)ccc21
 : -1.3%, u
COc1cccc(-c2nc(SCc3cc(=O)c4cc(Cl)ccc4[nH]3)n[nH]2)c1
 : -29.9%, -14.1%
CC(=O)Nc1c(C)nn(-c2ccccc2)c1N1CCC(C(=O)Nc2ccccc2C(F)(F)F)CC1
 : 17.6%, 15.6%
COc1ccccc1CNC(=O)c1cnc2c(-c3ccccc3)c(C)nn2c1C
 : -13.1%, -20.8%
O=S(=O)(NCCS(=O)(=O)N1CCN(c2ccccc2)CC1)c1ccc(Br)cc1
 : -16.3%, -3.1%
O=C(NCCc1cccs1)c1ccc(Cn2c(SCc3ccccc3)nc3cccnc32)cc1
 : -3.3%, -45.6%
CCc1ccccc1NS(=O)(=O)c1ccc2nc(-c3ccccc3)[nH]c2c1
 : -22.2%, u
Cc1cc(N2CCN(C)CC2)nc2ccc(NC(=O)Nc3ccccc3Br)cc12
 : -11.9%, u
CN(C)S(=O)(=O)N(CC(=O)Nc1ccc(C(F)(F)F)cc1)c1ccccc1
 : -27.7%, -10.1%
CCOC(=O)c1cc2c(=O)n3ccccc3nc2n(Cc2ccco2)c1=NC(=O)c1ccc(C(C)(C)C)cc1
 : -18.6%, u
CCOC(=O)c1ccccc1NC(=O)CSc1cn(CC(=O)N2CCCCCC2)c2ccccc12
 : u, u
CCC(=O)Nc1cc(C(=O)NCc2ccc(C)cc2)ccc1S(=O)(=O)c1ccc(C)cc1
 : -8.8%, -8.1%
CC(=O)[C@H]1CC[C@H]2[C@@H]3C=CC4=CC(=O)CC[C@@]4(C)[C@@H]3CC[C@]12C
 : -19.4%, x
COc1ccc(-c2nc(C)c(CCNC(=O)Cc3ccc(F)cc3)s2)cc1OC
 : -17.5%, -33.9%
CCCCN(C)C(=O)c1ccc2c(c1)N(Cc1cccc(F)c1)C(=O)c1ccccc1S2
 : -5.9%, -6.2%
Cc1ccc(C(=O)c2oc3ccccc3c2NC(=O)Cc2coc3c(C)c(C)ccc23)cc1
 : -10.9%, -3.1%
CC(CNC(=O)Cn1c(-c2cccs2)cc2ccccc21)c1ccccc1 (centres undefined)
 : u, u

Next section, starting with the last two of the part before.
Under each structure: HTT promoter inh, PMP22 txn prim
Cc1ccc(C(=O)c2oc3ccccc3c2NC(=O)Cc2coc3c(C)c(C)ccc23)cc1
 : -10.9%, -3.1%
CC(CNC(=O)Cn1c(-c2cccs2)cc2ccccc21)c1ccccc1 (centres undefined)
 : u, u
CCOc1ccc(-c2cn3c(n2)sc2cc(C(=O)NC(C)C45CC6CC(CC(C6)C4)C5)ccc23)cc1 (centres undefined)
 : 15.6%, -1.9%
C[N+]1(C)[C@@H]2CC(OC(=O)[C@H](CO)c3ccccc3)C[C@H]1[C@@H]1O[C@@H]12 (some centres undefined)
 : 12.6%, x
CC(c1cc2ccccc2s1)N(O)C(N)=O (centres undefined)
 : -9.8%&0.5%, x
CCc1ccc(NC(=O)Cn2c(=O)n(CCC(=O)NCCc3ccc(OC)c(OC)c3)c(=O)c3ccccc32)cc1
 : -10.9%, 4.5%
CCCCNC(=O)CSc1nc2n[nH]c(C)c2c(=N)n1-c1cccc(C)c1
 : -20.7%, -22.6%
Cc1ccc(-c2nc3c(cnn3-c3ccccc3)c(=O)n2-c2cccc(Cl)c2)cc1
 : -14.6%, -4.6%
O=C(CSc1nc(-c2cccs2)nc2cc(=O)[nH]n12)Nc1ccccc1F
 : -3.0%, u
CCOC(=O)c1cccc(NC(=O)NCCc2c(C)nn(C)c2C)c1
 : 2.7%, -20.0%
Nc1ccccc1NC(=O)c1ccc(CNc2nccc(-c3cccnc3)n2)cc1
 : 45.4%[activator], x
CCc1ccccc1NC(=O)c1sc2nc(C)cc(COC)c2c1N
 : -0.9%, -22.0%
CCN(CC)c1ccc(C2C(C(N)=O)=C(C)Nc3nc(SCc4ccccc4Cl)nn32)cc1 (centres undefined)
 : u, u
COc1cccc(N2CCN(C(=O)CCS(=O)(=O)c3ccc4c(c3)CC(=O)N4C)CC2)c1
 : -14.8%, u
CC(=O)Nc1nonc1-c1nnc(SCC(=O)Nc2ccc(C)cc2C)n1C
 : -10.3%, 1.3%
COc1ccccc1C(=O)n1nc(-c2ccco2)nc1NCc1ccc(Cl)cc1
 : 46.9%[activator], u
O=C(C1CCN(S(=O)(=O)c2cccc3nonc23)CC1)N1CCN(c2ccccc2F)CC1
 : -14.3%, -14.7%
O=C1CCc2ccc(OCCCCN3CCN(c4cccc(Cl)c4Cl)CC3)cc2N1
 : -8.5%&0.6%, x
COc1ccc(C)cc1NC(=O)c1c(C)oc2ncn(CC(C)C)c(=O)c12
 : -16.3%, u
COc1ccc(-n2ncc(C(=O)NCCN3CCOCC3)c2C2CCN(C(=O)OC(C)(C)C)CC2)cc1
 : 2.9%, 6.3%
O=C(NCCc1ccc(Cl)cc1)c1ccc2c(c1)N(Cc1cccc(Cl)c1)C(=O)c1ccccc1S2(=O)=O
 : -28.6%, -30.7%
COc1cc(/C=C/c2nc(C#N)c(N3CCCCCC3)o2)cc(OC)c1OC
 : -14.9%, u
Cc1c[nH]c2ccccc12
 : 2.1%, x
Cc1ccc(-c2noc(CCC(=O)N(C)c3ccccc3F)n2)cc1
 : u, -6.3%
Cc1ccc(-c2cc(C(=O)Oc3ccc(C#N)cc3)no2)cc1
 : 31.9%[activator], -21.2%
COc1ccc(CNC(=O)CCC(=O)N2CC3CCCN3c3ccccc32)cc1 (centres undefined)
 : -2.0%, 9.8%
O=c1cc(N2CCN(c3ccc(F)cc3)CC2)[nH]c(=O)n1-c1ccc(Br)cc1
 : -10.6%, -2.3%
Cc1ccc(CCNC(=O)c2ccc3c(Cl)c4c(nc3c2)CCCC4)cc1
 : u, u
CCOC(=O)c1c(C)oc2ncnc(NCCCN3CCN(c4cc(C)ccc4C)CC3)c12
 : -19.6%, u
O=C(CSc1ccc2nc(-c3ccccc3)cn2n1)Nc1ccccc1
 : u, 3.8%
CCc1ccc(CNC(=O)Cc2ccc(NC(=O)N3CCSc4ncccc43)cc2)cc1
 : u, -22.6%
COC(=O)c1scc(-c2ccc(C)cc2)c1S(=O)(=O)Nc1cc(C)ccc1OC
 : -25.1%, -25.4%
Cc1ccc2[nH]c(CSc3nnc(NC(=O)COc4ccc(F)cc4)s3)cc(=O)c2c1
 : -6.2%, 5.4%
COc1ccc(NC(=O)c2noc3c2CSc2ccccc2-3)cc1Cl
 : 3.4%, -85.5%
CN(C)Cc1c(C(=O)NCCOc2ccc(C(=O)NO)cc2)oc2ccccc12
 : 277.9%[activator], x
COc1ccccc1N1CCN(c2ncnc3c2nnn3C)CC1
 : 18.2%, 11.6%
CCS(=O)(=O)c1ncc(Cl)c(C(=O)NCc2ccccc2)n1
 : u, 8.43µM*
COC(=O)c1ccc2c(=O)n(CCCCCC(=O)NCCc3ccc(Cl)cc3)c(=O)[nH]c2c1
 : -14.9%, -3.2%
Cc1nn(CCC(=O)Nc2ccccc2Br)c(=O)c2nn(-c3ccccc3)c(C)c12
 : -8.5%, -26.3%
CC(=O)N1CCc2c(sc3c2c(=O)n(-c2ccc(F)cc2)c(=O)n3Cc2ccc(C#N)cc2)C1
 : -3.8%, -27.0%
O=C(O)c1c(-c2ccccc2)oc2ccc(OCc3ccc(Cl)c(Cl)c3)cc12
 : -16.8%, -59.1%
O=C(Cn1c(=O)nc(-c2ccccc2)c2ccccc21)NCc1ccc(F)cc1
 : -9.3%, 10.7%
COc1ccc(OC)c(NC(=O)Cc2c(C(=O)O)[nH]c3ccc(Cl)cc23)c1
 : -11.1%, -14.1%
CCOC(=O)C1CCCN(C(=O)c2ccc3c(c2)sc2nc(-c4cccc(OC)c4)cn23)C1 (centres undefined)
 : u, u
COc1ccc(NC(=O)C(=O)c2cc(C)n(-c3ccc(C)cc3)c2C)cc1Cl
 : u, -49.9%
Cc1ccc(C)c(N2CCN(S(=O)(=O)c3ccc(F)c(C(=O)Nc4ccc(Cl)cc4Cl)c3)CC2)c1
 : u, u
COC(=O)c1ccc(NC(=O)c2cccc3c2C(=O)N(C2CCCCC2)C3)cc1
 : 0.9%, -1.5%
CCCOc1ccc(CNC(=O)Cn2ncn3c(cc4sc(CC)cc43)c2=O)cc1
 : -1.1%, -9.2%
Cc1cnc2c(c1SCC(=O)NCc1ccccc1Cl)c(=O)n(C)c(=O)n2C
 : -7.0%, 8.5%
COc1ccc(NC(=O)Cn2c(=O)n(-c3ccc(C)c(C)c3)c(=O)c3c(C)c(C)sc32)cc1
 : -20.6%, u
O=C(NCc1ccc(F)cc1)c1ccc(CSCc2cccc(Cl)c2)o1
 : -18.9%, -10.7%
COc1ccc(C)cc1NC(=O)c1ccc2c(Cl)c3c(nc2c1)CCC3
 : 6.0%, -3.5%
COc1cc2nccc(Oc3ccc(NC(=O)Nc4ccc(F)cc4F)c(F)c3)c2cc1OC
 : -2.5%, x
Cn1cnc(S(=O)(=O)N2CCCC(C(=O)NCc3ccccc3)C2)c1 (centres undefined)
 : -13.2%, 3.9%
O=C(NC1CCCCC1)/C(=C/c1ccc(Cl)cc1)NC(=O)c1ccccc1
 : 10.1%, u
COc1cc2c(cc1OC)C(COc1ccc(F)cc1)N(C(=O)Cc1ccc(F)cc1)CC2 (centres undefined)
 : u, -24.2%
Cc1ccc(-c2nc3n(n2)C(c2ccccc2Cl)C=C(c2ccc(Cl)cc2)N3)cc1 (centres undefined)
 : 5.8%, -3.3%
COc1ccc(C(CNC(=O)COc2cc(C)cc(C)c2)N2CCOCC2)cc1 (centres undefined)
 : -3.3%, -8.9%
Cc1ccc(CN(C(=O)COc2ccccc2[N+](=O)[O-])c2ccccn2)cc1
 : -17.6%, -38.3%
COC(=O)c1nnn(CC(=O)NC(=O)Nc2ccc(F)cc2)c1C(=O)OC
 : -11.2%, -5.1%
Cc1ccc(N2CC(NC(=O)C3CCCC3)CC2=O)cc1 (centres undefined)
 : -21.9%, -3.4%
COc1cc(C(=O)NCCc2csc3nc(-c4ccccc4C)nn23)cc(OC)c1OC
 : -17.5%, 44.6%

Carrying on:
Under each structure: HTT promoter inh, PMP22 txn prim
Cc1c(C(=O)NCc2ccc(F)cc2)sc2nc3n(c(=O)c12)CCC3
 : 2.0%, -8.0%
CN(c1ccc(Cl)cc1)S(=O)(=O)c1nnc(NC(=O)c2ccco2)s1
 : -12.8%, -37.0%
Cc1ccc(CCNc2nc3ccccc3c3nc(-c4ccccc4)nn23)cc1
 : 9.9%, 2.8%
COC(=O)c1sccc1S(=O)(=O)N(CC(=O)NCc1ccc(F)cc1)c1ccc(C)c(C)c1
 : -2.6%, -83.4%
Cc1ccc(-c2cc(N)n(-c3ccc(C)cc3)n2)cc1
 : 113.8%[activator], u
CCc1ccc(CN(Cc2ccco2)c2cnc(S(C)(=O)=O)nc2C(=O)Nc2ccccc2Cl)cc1
 : u, -13.4%
CC(C)COc1ccc(C(=O)N(Cc2ccc(N(C)C)cc2)Cc2ccco2)cc1
 : u, u
CCOC(=O)c1cccc(NS(=O)(=O)c2cc(Br)cc3c2N(C(=O)C2CC2)CC3)c1
 : u, u
CCOc1cc(-c2ccc(OC(=O)c3ccccc3F)cc2)cc(=O)c2c(C)oc(C)c12
 : 0.7%, u
CCCCOC(=O)CSc1nnc(-c2ccc(C)cc2)o1
 : u, -5.2%
CC(=O)c1ccc(NC(=O)CSc2nnc(N)s2)cc1
 : 9.2%, u
CC(=O)Nc1ccc(NC(=O)c2ccc3c(c2)CCN3S(=O)(=O)c2ccc(Cl)cc2)cc1
 : u, 9.3%
COCCNC(=O)CN1C(=O)COc2ccc(S(=O)(=O)N3CCOCC3)cc21
 : -8.6%, -10.6%
CCN(CC)C(=O)c1sc(NC(=O)c2nc3ncccn3n2)c(C(=O)OC)c1C
 : -18.0%, -7.9%
CC(C)(C)c1ccc(C2=NC(C)(C)N(CC(=O)Nc3ccc(F)c(F)c3)C2=O)cc1
 : -28.7%, u
COc1ccc(NC(=O)CSc2nc3c([nH]c4ccccc43)c(=O)n2C)cc1
 : -2.0%, -3.8%
CCOc1ccccc1NC(=O)CN(C)S(=O)(=O)c1ccc2nc(C)sc2c1
 : -14.7%, 1.8%
Cc1nc2nc(SCC(=O)NCc3ccccc3)nn2c(C)c1Cc1ccccc1
 : -23.6%, -12.8%
CCN(CC)C(=O)C1CCN(c2cc(C)nc3c(-c4ccc(OC)c(OC)c4)c(C)nn23)CC1
 : -5.2%, -91.5%
CCCN(C(=O)c1ccc2c(=O)n3c(nc2c1)CCCCC3)c1cccc(Cl)c1
 : u, -25.5%
COc1ccc(Br)cc1CNC(=O)CCCn1c(=O)c2cccn2c2cccnc21
 : -9.0%, u
Cc1ccccc1CN1C(=O)c2ccccc2Sc2ccc(C(=O)NC3CCCC3)cc21
 : -27.8%, -17.9%
COc1ccc(C2=NN(CC(=O)NCc3ccccc3Cl)C(=O)CC2)cc1
 : 5.8%, 2.8%
